Assay outcomes: PubChem BioAssay, several laboratories
Beta cell apopt: beta cell apoptosis inhibition. INS-1E cytokine-induced death, ATP luminescence, 48 h; percent of positive-control rescue, neutral wells zero. protection from apoptosis, % (no concentration beside the values). 300,000 compounds, 0.8% hits. AID 435005;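 active = all replicates at 75% or more, or half of them and the mean; inconclusive = half reach 75% but not the mean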;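 note: 0% = cytokine-treated negative control wells and 100% = positive control rescue; higher means more ATP so stronger rescue from cytokine killing; wells of about 40 µL received 100 nL stock; the first replicate is given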
Calb FLC: C. albicans growth modulation with fluconazole; 300,000 compounds, 0.57% hits; AID 1979; growth inhibition, % (test concentration not listed); C. albicans CaCi-2 (fluconazole-resistant clinical isolate) + fluconazole, Alamar Blue growth, 48 h;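 active = most replicates above 75%; inconclusive = exactly half above 75%; inactive = most below 75%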;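 note: all wells also contain fluconazole at 8 µg/ml as a sub-toxic cotreatment; 0% = median of DMSO wells and 100% = median of geldanamycin control wells; wells of about 8 µL received 7.5 nL stock; the first replicate is given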
LANA-H2A inh: blocks KSHV LANA binding to histone H2A/H2B; Q9QR71; cell-free LANA-H2A/H2B peptide, fluorescence polarization; inhibition, % (test concentration not listed); 320,000 compounds, 0.6% hits; in the data active = inhibition mostly above about 10%, no sharp cut-off; inactive = mostly below about 6.7%;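 note: stock transfer was 7.5 nL into about 10 µL; 0% = median of vehicle wells and 100% = median of positive control wells; one replicate is shown; the record names a cut of 25% in any replicate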
Target sequence (Q9QR71 whole entry, looked up): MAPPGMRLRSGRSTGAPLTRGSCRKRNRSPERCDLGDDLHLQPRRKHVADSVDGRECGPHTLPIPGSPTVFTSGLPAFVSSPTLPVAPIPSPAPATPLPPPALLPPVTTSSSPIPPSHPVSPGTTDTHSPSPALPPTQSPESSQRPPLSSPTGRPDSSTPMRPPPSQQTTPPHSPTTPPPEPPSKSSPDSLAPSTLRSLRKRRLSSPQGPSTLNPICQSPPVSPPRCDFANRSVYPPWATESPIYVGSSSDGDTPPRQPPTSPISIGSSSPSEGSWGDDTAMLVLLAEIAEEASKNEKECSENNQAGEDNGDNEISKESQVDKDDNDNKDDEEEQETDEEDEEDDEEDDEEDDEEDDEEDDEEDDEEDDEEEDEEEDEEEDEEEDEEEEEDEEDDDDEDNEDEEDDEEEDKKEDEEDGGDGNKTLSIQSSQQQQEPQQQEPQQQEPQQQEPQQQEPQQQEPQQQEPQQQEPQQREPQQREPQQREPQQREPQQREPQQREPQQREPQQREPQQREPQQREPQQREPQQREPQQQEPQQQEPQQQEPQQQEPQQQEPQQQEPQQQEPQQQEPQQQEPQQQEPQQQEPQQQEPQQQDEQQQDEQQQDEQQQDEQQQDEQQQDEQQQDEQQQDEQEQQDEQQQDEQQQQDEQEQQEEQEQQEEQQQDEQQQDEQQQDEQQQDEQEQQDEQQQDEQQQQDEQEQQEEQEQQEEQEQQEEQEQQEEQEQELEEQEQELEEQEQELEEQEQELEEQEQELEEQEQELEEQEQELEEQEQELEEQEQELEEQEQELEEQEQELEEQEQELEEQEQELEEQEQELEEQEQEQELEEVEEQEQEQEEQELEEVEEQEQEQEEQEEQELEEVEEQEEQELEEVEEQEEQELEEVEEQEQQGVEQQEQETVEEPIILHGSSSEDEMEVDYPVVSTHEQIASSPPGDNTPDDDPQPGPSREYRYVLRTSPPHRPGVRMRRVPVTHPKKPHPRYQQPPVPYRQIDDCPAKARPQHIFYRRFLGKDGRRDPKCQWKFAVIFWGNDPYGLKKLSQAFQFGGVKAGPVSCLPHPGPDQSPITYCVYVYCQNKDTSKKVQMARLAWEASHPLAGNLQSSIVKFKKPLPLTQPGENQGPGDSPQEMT
Vif A3G: inhibitors of Vif binding to APOBEC3G peptide, primary screen, biochemical, TR-FRET, GST-Vif 1-94, biotin-A3G peptide, dose response retest (AID 1117319) | TR-FRET GST-Vif / biotin-A3G peptide binding; higher % means a stronger effect; test concentration not given here; strong numbers were not always called active | one-dose inhibition, %; IC50 in µM for titrated hits | 260,000 compounds, 0.57% hits;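 active = above the screen mean plus three standard deviations and confirmed in dose response; inconclusive = results disagree or hit not tested in dose response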;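 note: Vif residues 1-94 fused to GST binding biotinylated APOBEC3G peptide 110-148; 0% = full assay without inhibitor and 100% = GST in place of GST-Vif; retest series ran down from 100 µM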
AF4-AF9 inh: blocks AF4 peptide binding to human AF9. P42568. AlphaScreen, biotin-AF4 peptide binding to FLAG-AF9. inhibition, % at 10 µM. 350,000 compounds, 0.47% hits. AID 651704;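 active = every replicate reaching a set inhibition limit, whatever the replicate mean, cut at about 25% in these data; inconclusive = mean inhibition reaches that limit but some replicates miss it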;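 note: 0% = plate neutral control median and 100% = total signal loss; the record names both 10 and 1 µM as test concentration; the first replicate is given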
RanGTP-Impb inh: inhibitors of RanGTP-importin-beta interaction, primary screen, biochemical, FRET, CFP-Ran, YFP-importin-beta, homogeneous | cell-free CFP-Ran/YFP-importin-beta FRET ratio | inhibition, % (concentration not given with the values) | 300,000 compounds, 1.1% hits | AID 2216;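 active = most replicates above 15%; inconclusive = exactly half above 15%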;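 note: 0% = DMSO wells and 100% = Ran loaded with GDP instead of GTP; wells of about 40 µL received 100 nL stock; the first replicate is given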
T cruzi repl: blocks replication of Trypanosoma cruzi | T. cruzi beta-gal in NIH3T3, luminescence, 90 h | inhibition, % (no concentration beside the values) | 300,000 compounds, 1.4% hits;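 active = mean inhibition across valid replicates above about 55%, limit read from the data; inconclusive = mean below that limit but half or more replicates reach it; inactive = mean below it, under half of replicates reach it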;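 note: signal also drops with host cell toxicity which is not excluded here; 0% = plate median of DMSO wells and 100% = zero luminescence signal; higher percent means less beta-gal luminescence so fewer parasites; stock transfer was 50 nL into about 50 µL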
Bfl-1 A1 inh: inhibitors of the anti-apoptotic protein A1, read as caspase activation. MEF A1-2A-BIM cells, Caspase-Glo 3/7 luminescence, 3 h; percent of clofoctol response, vehicle zero. caspase activation, % (concentration not given with the values). 330,000 compounds, 0.066% hits;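 active = over half of replicate activation scores above 10%, or exactly half above 10 with the replicate mean above 10; inconclusive = replicate mean below 10 yet half the replicates above 10; inactive = over half of replicates below 10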;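 note: wells of about 30 µL received 50 nL stock; many hits fall short of the cut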
Starred values were filed as active, the others as inactive; ? = inconclusive; / = no result given; & = joins results of further samples. Compounds as they come. About 4.3% of those tested had a hit in this group.

SMILES	Beta cell apopt	Calb FLC	LANA-H2A inh	Vif A3G	AF4-AF9 inh	RanGTP-Impb inh	T cruzi repl	Bfl-1 A1 inh
O=C1NCC2=C1C(c1ccc(Br)cc1)Nc1ccccc1N2 (stereo not given)	-5	9	2.4	15%	/	3.0	-9	-0.4
Cc1ccc(S(=O)(=O)NCC(=O)N(CC(=O)NC2CCCC2)CC2CCCO2)cc1 (stereo not given)	1	-9	-4.5	4%	-0.6	0.8	1	-0.1
CCOC(=O)N1CCN(S(=O)(=O)N2CCCC(C(=O)NCc3ccc(F)cc3)C2)CC1 (stereo not given)	5	5	-4.7	/	0.5	2.4	7	1.8
COc1ccc(NC(=O)COC(=O)CCCOc2ccc(Cl)cc2Cl)cc1Cl	2	5	-1.2	-6%	-1.8	-2.2	-1	0.9
Cc1cc2oc(=O)cc(CN3CCCCC3C)c2cc1Cl (stereo not given)	-2	4	0.7	-2%	1.2	2.5	5	0.1
O=C(Nc1ccc(Nc2ccccc2)cc1)c1ccc(F)cc1	-3	-6	0.6	-3%	2.6	0.7	0	-2.6
CC1CCCC(C)N1C(=O)COc1cccc(Oc2ccccc2)c1 (stereo not given)	-4	/	0.5	-6%	0.7	/	/	1.5
CCCN(CCC)S(=O)(=O)c1ccc(C(=O)Nc2cc3oc4ccccc4c3cc2OC)cc1	0	2	-1.1	24%	-0.8	-0.5	23	0.0
CCC(C)(CN(C)C)OC(=O)c1ccccc1 (stereo not given)	-5	/	0.6	/	-0.6	/	/	0.4
COc1ccc(-c2nnc(CSc3nc4ccccc4c(=O)n3CC3CCCO3)o2)cc1OC (stereo not given)	0	16	-2.2	28%	0.0	-1.2	-5	-0.4
Nc1nc(-c2ccccc2)c(N=Nc2cccc3ccccc23)s1	16	14	-0.6	/	?	-2.8	27	-0.4
COCC(C)OC(=O)C(C#N)c1nc2ccccc2nc1N1CCN(Cc2ccccc2)CC1 (stereo not given)	16	1	-3.4	28%	/	6.8	?	0.0
Cn1c(CS(=O)Cc2c(Cl)cccc2Cl)nnc1SCc1ccc(Cl)cc1 (stereo not given)	3	8	-3.3	1%	/	?	19	0.1
COC(=O)c1ccccc1NC(=O)Cn1cnc2c(cnn2-c2ccc(C)c(C)c2)c1=O	-4	-10	1.9	/	/	-0.5	0	1.2
C[C@H](NC(=O)[C@@H]1Cc2ccccc2CN1C(=O)OC(C)(C)C)C(=O)NCc1ccco1	-8	-7	-0.9	9%	-1.0	4.8	8	-0.1
CCN(CCCC(=O)c1ccc(F)cc1)CCc1ccccc1	/	-121	1.9	/	2.4	6.4	58*	0.7
COc1ccc([N+](=O)[O-])cc1NS(=O)(=O)c1cc(C(=O)O)ccc1OC	0	-6	1.1	-3%	-20	4.1	2	0.0
Cc1cc(Cl)ccc1OCCn1cncn1	-4	38	-4.5	/	-0.6	2.7	-7	0.0
CCc1nnc(NC(=O)CCC(=O)NCc2ccccc2Cl)s1	0	/	-0.9	/	-0.8	5.6	-24	-0.1
CCOC(=O)Nc1nc2ccccc2s1	-14	-14	-2.4	2%	/	-1.1	-2	-3.3
Cc1ccn2c(NC3CCCCC3)c(-c3cccc(SC4CCCCC4)c3)nc2c1	7	/	-2.9	/	8.4&3.6	/	/	1.1
O=C1CC(c2ccccc2)c2c(O)cc(O)cc2O1 (stereo not given)	-2	-5	5.9	11%	/	6.4	-2	1.1
COc1ccc(C2N(C(=O)CN3CCCC3)CCCN2S(=O)(=O)c2ccccc2)cc1 (stereo not given)	-1	-1	-0.2	/	3.3	-1.6	0	-0.3
Cc1c(NC(=O)CSc2nnc(-c3cccc(Cl)c3)o2)c(=O)n(-c2ccccc2)n1C	-3	-3	1.4	20%	/	-1.0	11	0.6
Cn1cc(CCC(=O)N2CCCC(CCC(=O)NCc3ccc(F)c(F)c3)C2)cn1 (stereo not given)	-7	-7	-0.5	-11%	0.4	5.1	8	0.6
Cc1cc(C2(c3ccc(O)c(C)c3)C(=O)Nc3ccccc32)ccc1O	5	-4	4.0	-2%	/	-3.9	28	-0.2
CN(C)C(=O)CSc1nnc(-c2ccc(F)cc2)c2ccccc12	0	-1	-2.3	-9%	3.6	-0.9	-18	0.8
CCC(C)[C@H](NC(=O)N1CC(=O)Nc2ccccc21)C(=O)N1CCC(C(=O)O)CC1 (stereo not given in full)	0	20	3.8	/	-2.3	3.4	-6	0.2
CCC(=O)N1c2ccc(S(=O)(=O)N3CCN(C)CC3)cc2CC1C (stereo not given)	-6	-24	-2.7	/	-2.2	-0.4	-7	0.1
Cc1ccc(CNC(=O)CS(=O)(=O)c2ccccc2)cc1	-5	12	-1.6	/	-0.9	-3.4	-6	-1.1
Cc1ccccc1NC(=O)/C(=C\c1cccs1)NC(=O)c1ccccc1	-2	-2	5.0	6%	/	-3.5	-2	0.1
COc1ccc(OC)c(C(=O)c2ccccn2)c1	-8	8	2.9	4%	-4.3	-1.2	-9	2.1
O=C(CSc1nnc(CNC(=O)c2ccco2)o1)Nc1ccc(F)cc1F	-6	-3	-0.4	/	-3.0	1.4	0	0.5
CSCC(CO)NS(=O)(=O)c1ccc(C)cc1 (stereo not given)	-3	2	4.8	12%	-6.0	-0.5	5	0.4
CSc1ccccc1OCc1cc(C(=O)NCCN2CCCC(O)C2)no1 (stereo not given)	-10	18	-3.1	/	1.0	7.9	7	-0.5
COc1cc(/C=N/OCC(=O)NC2CCS(=O)(=O)C2)ccc1OC(F)F (stereo not given)	1	-6	-1.9	-3%	-4.0	2.3	-5	0.4
CCOC(=O)Cc1c(C)c2ccc(N(CC)CC)cc2oc1=O	12	?	-1.1	16%	/	130*	-3	0.5
COC(=O)/C(=C/c1cn(C)c2ccccc12)[N+](=O)[O-]	/	-16	/	5%	/	3.6	19	/
CS(=O)(=O)N(CC(=O)N1CCCC1)c1cc(Cl)ccc1Cl	2	-8	1.8	/	-1.8	-1.4	-2	0.3
CC(C)c1ccc(NC(=O)CCNC(=O)Cn2ccc3ccccc3c2=O)cc1	5	-8	-1.4	/	8.3	-4.4	1	-0.5
O=C(CCC1N=C2c3ccccc3N=C(SCC(=O)NCc3ccco3)N2C1=O)NCc1ccco1 (stereo not given)	-8	13	6.3	-17%	-1.6	4.9	-10	-0.4
Cc1ccc(C(=O)N2CC(=O)Nc3ccc(F)cc3C2c2ccc(F)cc2)cc1[N+](=O)[O-] (stereo not given)	-4	41	2.4	/	/	-4.0	-8	-0.4
O=C(CCCn1nnc2ccccc2c1=O)N[C@H](C(=O)O)c1ccccc1	-2	3	2.4	?	2.5	-1.3	-8	1.2
COc1cc(Br)cc(CNc2ccc(F)c([N+](=O)[O-])c2)c1O	-2	11	3.0	9%	4.6	1.8	-13	0.2
COC(=O)c1ccc(NC(=O)CN2C(=O)C3C4C=CC(C4)C3C2=O)cc1 (stereo not given)	/	-7	/	?	/	-4.3	-1	/
CC(C)(C)CC(C)(C)Nc1c(-c2ccc(O)cc2)nc2cnccn12	-1	-19	4.0	-12%	/	1.5	33	0.0
CC(=O)Nc1cccc(NC(=O)Cc2cccs2)c1	-3	-7	0.1	/	-9.0	-1.8	-10	0.3
Cc1cc(C)n2c(Br)c(CSc3nc4ccccc4o3)nc2n1	0	4	-7.8	?	/	-1.5	26	0.6
COc1ccc(CNC(=O)Cc2cccs2)cc1OC	-2	-4	-2.6	0%	-1.9	-0.9	-11	3.7
CCOc1ccc(/C=N/OCC(=O)NCc2ccco2)cc1	-3	-8	-1.5	/	-0.5	-2.0	-5	0.4
COc1ccc(-n2nc(C(=O)NCC(=O)N3CCCCCC3)c3ccccc3c2=O)c(OC)c1	5	11	-0.6	6%	-1.5	?	-7	0.6
CS(=O)(=O)c1ccc(CNC(=O)C2(C(F)(F)F)C/C(=C\Cc3ccccc3)CCCO2)cc1 (stereo not given)	-5	7	6.9	/	1.5	0.6	2	0.4
NC(=O)N=Nc1c2[nH]c3ccccc3nc-2c2ccccc12	62	-9	-8.0	-8%	/	0.5	12	0.8
CCCCNC(=O)CCSc1ccc(C)cc1	1	10	0.9	/	/	-1.0	-12	-0.5
Oc1cccc(C(=S)N2CCCCC2)c1	1	?	2.5	8%	-3.7	-1.9	-8	-0.5
COc1ccc(/C=N/NC(=O)CCn2cnc(-c3ccccc3)c2-c2ccccc2)cc1OC	-11	-1	-4.3	/	12	-2.8	-38	0.1
COc1ccc(C(=O)Cn2nnc(-c3ccc(N4CCOCC4)cc3)n2)cc1OC	-7	3	2.9	1%	/	0.3	-11	-2.3
COc1cc(SC)ccc1C(=O)NC1CCCCC1	/	49	-0.2	13%	/	2.1	0	0.5
CC(Oc1ccccc1F)C(=O)NNC(=O)C1CC(=O)N(c2ccc3c(c2)OCCO3)C1 (stereo not given)	-6	/	-0.4	-3%	-38	2.6	-1	-0.6
COC(=O)c1ccc(COC(=O)c2cnc(Cl)c(Cl)c2)cc1	2	20	4.3	-2%	-0.4	3.6	-9	0.3

Single records, from the list above:
Listed for `COc1ccc(C2N(C(=O)CN3CCCC3)CCCN2S(=O)(=O)c2ccccc2)cc1` (stereo not given) : Beta cell apopt = -1; Calb FLC = -1; LANA-H2A inh = -0.2; Vif A3G = /; AF4-AF9 inh = 3.3; RanGTP-Impb inh = -1.6; T cruzi repl = 0; Bfl-1 A1 inh = -0.3
Listed for `COc1ccc([N+](=O)[O-])cc1NS(=O)(=O)c1cc(C(=O)O)ccc1OC` : Beta cell apopt = 0; Calb FLC = -6; LANA-H2A inh = 1.1; Vif A3G = -3%; AF4-AF9 inh = -20; RanGTP-Impb inh = 4.1; T cruzi repl = 2; Bfl-1 A1 inh = 0.0

Continuation.
SMILES	Beta cell apopt	Calb FLC	LANA-H2A inh	Vif A3G	AF4-AF9 inh	RanGTP-Impb inh	T cruzi repl	Bfl-1 A1 inh
Cc1ccc(S(=O)(=O)N2CCN(C(=O)c3cccc(-n4cccc4)c3)CC2)cc1	1	-4	1.7	14%	8.8	/	11	1.1
CCOC(=O)c1nnn(-c2nonc2-c2ccccc2)c1C	-6	21	-5.6	-2%	/	2.8	2	0.0
Cc1cc(NC(=O)c2ccccc2Cl)n(C(C)(C)C)n1	3	-3	3.6	-4%	-2.1	2.2	-6	0.9
Cc1ccnc(NC(c2cccnc2)c2ccc3cccnc3c2O)c1 (stereo not given)	-25	90*	-2.0	7%	82*	1.3	17	0.7
Cc1cc(C)nc(SCC(=O)Nc2ncc(C(F)(F)F)cc2Cl)n1	-2	-2	-4.1	7%	/	?	-29	-0.9
CCOC(=O)Cc1csc(NS(=O)(=O)c2ccc(Cl)cc2)n1	3	-3	-4.9	/	-6.5	6.9	-6	0.5
COc1ccc([C@@H]2CC=C(C(=O)O)[C@H](c3ccc(Cl)cc3)N2S(=O)(=O)c2ccc(Cl)cc2)cc1	1	/	-2.5	/	-1.7	/	/	-0.4
COC(=O)CSc1nc(SCc2ccc(C)cc2)nc2c1CCCC2	-6	5	7.9	9%	/	1.5	1	0.6
CCn1c(C)nc2cc(S(=O)(=O)C(F)(F)F)ccc21	-3	-3	-0.4	-3%	/	-2.5	-22	-0.2
N#CC1=C(N)OC2=C(CCC/C2=C/c2ccoc2)C1c1ccoc1 (stereo not given)	/	1	/	2.6µM*	/	2.3	-14	/
